# From PubChem BioAssay
# HPGD inh: HPGD (human) dehydrogenase inhibition; P15428; purified HPGD, NADH fluorescence kinetic, PGE2 substrate; Potency, µM, inactives show top-dose activity change, negative = inhibition, most hits filed as inhibitors; hit rate 4.3% among 150,000; active = well fitted inhibition curve with a large enough effect (not every such curve was filed as active); inconclusive = small, poorly fitted or top-dose-only effect, or another doubt; inactive = no such curve, though single readings can be large or run the other way;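 further: top concentration of the series not given in the record; plate controls included wells without enzyme; inactives centre near -10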
# Target sequence (P15428 whole entry, looked up): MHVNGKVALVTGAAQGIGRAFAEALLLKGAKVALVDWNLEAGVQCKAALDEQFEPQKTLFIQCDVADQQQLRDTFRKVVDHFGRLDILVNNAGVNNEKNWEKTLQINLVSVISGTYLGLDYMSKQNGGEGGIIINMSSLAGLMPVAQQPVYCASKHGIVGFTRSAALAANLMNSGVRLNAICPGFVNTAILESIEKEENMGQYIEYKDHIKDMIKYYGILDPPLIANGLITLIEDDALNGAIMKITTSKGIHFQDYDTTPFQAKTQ
#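 20 nM HPGD preincubated 15 min at room temperature with compound in 50 mM Tris-HCl pH 8, 0.01% Tween 20. Started with 1 mM NAD+ and 30 uM prostaglandin E2; NADH fluorescence (360/450 nm) read 5 times over 30-s intervals, last minus first.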
# Numbers without * were called inactive; ? = inconclusive; [ ] = another dose, or the depositor's remark. On the % scale 0 is the no-effect control and ±100 the full control effect; potency means the concentration at half of the fitted maximal effect.
canonical_smiles | HPGD inh
COc1cccc(-n2nc3c(=S)[nH]nc(C)c3c2C)c1 | -8%
CC(=O)/C(=N/Nc1ccccc1C)N1CCOCC1 | -27%
Fc1ccccc1CNc1cc(Cl)cc(Cl)c1 | ?
COc1ccc(NC(=O)C2CCCN(C)C2)cc1OCC(C)C (configuration not stated) | -2%
COc1ccccc1Nc1nc(=O)[nH]nc1C | -14%
COc1ccc(CCNS(=O)(=O)c2cccc(C(=O)O)c2)cc1OC | -9%
Cc1ccc(S(=O)(=O)Nc2ccccc2CNc2ccc(Br)cn2)cc1 | -22%
Cc1ccc(S(=O)(=O)N2C(=O)C(C)SC2=Nc2ccccc2)cc1 (configuration not stated) | -5%
Clc1nc(-c2n[nH]nc2Cl)n[nH]1 | -9%
COc1ccc(CN2CC(C(=O)NCc3cccc(OC)c3)CC2=O)cc1 (configuration not stated) | -12%
Cc1ccc2nsnc2c1NC(=O)c1ccc(-c2cc(Cl)ccc2Cl)o1 | ?
COc1cc(NC(=O)C2CCCC2)c(OC)cc1Cl | -7%
Cn1nccc1CNC(=O)c1c(Cl)cnn1C | -2%
CCN(Cc1ccccc1)c1ccc(/C=N/N2CCOCC2)cc1 | -16%
Cc1cc(C)n(/N=C/c2cccc([N+](=O)[O-])c2)c(=O)c1 | ?
CCn1nc(NC(=O)c2ccncc2)c2cc3ccc(C)cc3nc21 | -13%
Oc1ccc(-c2cn3cc(C(F)(F)F)ccc3n2)cc1 | ?
O=C(O)c1cccc(-c2ccc(/C=N/NC(=O)c3cccnc3)o2)c1 | ?
Cc1cc(NC(=O)CSc2nc3ccccc3c(=O)n2CCCC(=O)NCc2ccco2)n[nH]1 | -9%
COc1ccc(C(=O)Nc2ccc(N3CCN(c4ccc(OC)cc4)CC3)c(C#N)c2)cc1 | ?
Cc1ccc(O)c(-c2cc(C(=O)NCc3ccc4c(c3)OCO4)[nH]n2)c1 | 3.2µM*
CCN(C(=O)COC(=O)c1cc(-c2ccccc2)nc2c1c(C)nn2-c1ccccc1)C1CCS(=O)(=O)C1 (configuration not stated) | ?
O=C(NCc1ccccn1)c1cccs1 | -17%
Cc1cccc2cc(/C=N/NC(=O)c3ccccc3O)c(Cl)nc12 | -15%
CC(C)(O)C(=O)NN(C(=O)c1ccccc1)c1cccc(Br)c1 | 0%
Cc1cc(Cl)c(OCCCN2CCCCC2)c(Br)c1 | 4%
CC(=O)Oc1cc2c(C(C)=O)coc2c2ccccc12 | -2%
CC(C)NC(=O)c1cccc(Cn2cc(Cl)cn2)c1 | -22%
CCN(CC)CCN1C(=O)C(O)=C(C(=O)c2sc(C)nc2C)C1c1cccnc1 (configuration not stated) | -19%
CC(C)(C)c1ccc(N2C(=O)Cc3c2nc(N)c(C#N)c3N)cc1 | -9%
CC(CCc1ccccc1)NC(=O)CN1CCN(Cc2ccccc2)C1=O (configuration not stated) | -2%
CCN(CC)S(=O)(=O)c1cccc(-c2nnc(SCc3nnc(-c4ccccc4)o3)n2C)c1 | ?
CCOC(=O)c1sc2nc(N3CCOCC3)c3c(c2c1N)CCN(Cc1ccccc1)C3 | ?
Cn1c(SCC(=O)O)nc2ccccc2c1=O | -13%
CCOc1ccccc1OCC(=O)NCc1ccco1 | -20%
C=CCNc1nnc(C)c2ccccc12 | -14%
CCCCC1(C)NC(=O)c2c(C)sc(C(=O)OCC)c2N1 (configuration not stated) | ?
COc1ccccc1CNC(=O)c1ccc(SC)cc1OC | 22µM*
CCC(=O)Nc1cc2nn(-c3ccc(OC)cc3)nc2cc1C | ?
CCCCCCc1c(O)c2ccccc2[nH]c1=O | ?
Cc1oc2nc(SCC(=O)NCCCO)nc(N)c2c1C | -8%
O=C(CCS(=O)(=O)Cc1ccccc1)NCC1CCCO1 (configuration not stated) | -7%
CCOC(=O)c1nn(-c2ccc(Br)cc2)cc1C(=O)c1cccc2ccccc12 | -18%
CCCCn1c(N)c(Sc2ccccc2)c(=O)[nH]c1=O | 0%
COCCCn1c(N)c(-c2nc3ccccc3n2C)c2nc3ccccc3nc21 | ?
CCN(CC)S(=O)(=O)c1ccc(OC)c(NC(=O)c2cc3c(=O)n4ccccc4nc3s2)c1 | -18%
CCOc1ccc(N/C=C/C(=O)c2ccc(C)cc2)c([N+](=O)[O-])c1 | -17%
CN1CCCC1CCNC1C2CC3CC(C2)CC1C3 (configuration not stated) | 1%
CCN1CNC(=S)N(c2cccc(C)c2C)C1 | -5%
CC(C)CC(=O)Nc1cc(C(F)(F)F)ccc1N1CCOCC1 | -16%
CC(C)CNC(=S)NNC(=O)c1csc2c1CCCC2 | -3%
O=C(NCc1cccnc1)NC1(C(F)(F)F)Oc2ccc(Cl)cc2O1 (configuration not stated) | -3%
O=C(NCC1CCCO1)C(=O)NCC(c1ccco1)N1CCN(c2ccccc2F)CC1 (configuration not stated) | -12%
CN(C)S(=O)(=O)c1ccc(C(=O)Nc2ccccn2)cc1 | -1%
COc1ccc(CCN=C(N)NS(=O)(=O)c2ccc(OC)cc2)cc1 | -15%
Cc1noc(C)c1CSc1nc2sc(C)c(C)c2c(=O)n1C1CCCC1 | -6%
O=C(O)C1CC(=O)N(c2ccc(F)c(F)c2)C1 (configuration not stated) | -13%
CC(=O)NC1=NN(C(C)=O)C(C)(c2ccc3ccccc3c2)S1 (configuration not stated) | -5%
Cn1c(=O)oc2cc(S(=O)(=O)Nc3ccc4c(c3)OCO4)ccc21 | -18%
O=C1CC2CS(=O)(=O)CC2N1C1CCCCC1 (configuration not stated) | -1%

# Sorted by the number under HPGD inh (high to low): some entries from above.
canonical_smiles | HPGD inh
COc1ccc(NC(=O)C2CCCN(C)C2)cc1OCC(C)C (configuration not stated) | -2%
Cc1ccc(S(=O)(=O)N2C(=O)C(C)SC2=Nc2ccccc2)cc1 (configuration not stated) | -5%
Cc1noc(C)c1CSc1nc2sc(C)c(C)c2c(=O)n1C1CCCC1 | -6%
O=C(CCS(=O)(=O)Cc1ccccc1)NCC1CCCO1 (configuration not stated) | -7%
O=C(NCc1ccccn1)c1cccs1 | -17%

# The list continues:
canonical_smiles | HPGD inh
CCOc1ccc2nc(NC(=O)CN3CCN(c4ccccn4)CC3)sc2c1 | -6%
CNC(=O)/C(C#N)=C/c1ccc(-c2ccc(OC)cc2[N+](=O)[O-])o1 | 7.1µM*
CCOC(=O)N1CCC(NC(=O)c2sc3nc4n(c(=O)c3c2C)CCCC4)CC1 | 1%
Nc1ccc2c(c1)C(=O)N(CC1CCCO1)C2=O (configuration not stated) | -5%
CCCN=C(C)c1c(-c2ccccc2)[nH]n(-c2nc3ccccc3s2)c1=O | 156%[activator]
CCOC(=O)c1c(NC(=O)CN2CCCCC2)sc2c1CCC(C=O)=C2Cl | -12%
CC1CCCN(c2ccc(C(=O)NCc3ccco3)cc2[N+](=O)[O-])C1 (configuration not stated) | ?
CCOC(=O)c1c(C)n(CCNC(C)=O)c2ccc(OC)cc12 | -8%
COc1ccc(NC2=CC(c3ccc(F)cc3)N(c3ccc(OC)cc3)C2=O)cc1 (configuration not stated) | ?
NCCC[C@@H](CC(=O)N[C@@H]1CCCC[C@H]1C(=O)N[C@H](CC(=O)N[C@@H](CCC(=O)O)CC(=O)O)Cc1ccccc1)NC(=O)C[C@H](Cc1c[nH]c2ccccc12)NC(=O)[C@@H]1CCCC[C@H]1N | -5%
CC(C(=O)NCc1ccc2c(c1)OCO2)N(c1ccccc1)S(C)(=O)=O (configuration not stated) | -8%
Cc1ccc(NC(=O)/C(C#N)=C/c2ccc(C)s2)c(C)c1 | -24%
COCCNC(=O)C1=C(N)C(C(=O)Nc2ccc(C)c(S(=O)(=O)N3CCCCC3)c2)SC1=Nc1ccc(C)cc1C (configuration not stated) | ?
O=C(NCc1cccs1)c1cccc(Nc2nc3ccc(Br)cc3[nH]2)c1 | -25%
CC1CCCC(NC(=O)CSc2ncccc2C(=O)O)C1C (configuration not stated) | -16%
Cc1nnc(SCC(=O)Nc2ccc(S(=O)(=O)N3CCCC3)cc2)n1N | -13%
COc1ccc(N(CC(=O)Nc2cccc(C(=O)O)c2)S(=O)(=O)c2c(C)noc2C)cc1 | 0%
O=C(CNC(=O)c1ccccc1)NCC(=O)OCC(=O)c1ccc([N+](=O)[O-])cc1 | -6%
O=C(Cn1c(=O)[nH]c2ccsc2c1=O)N1CCN(c2ccc(F)cc2)CC1 | -6%
COC(=O)/C=C1/N/C(=N\c2nc(C)cc(C)n2)N(c2ccccc2)C1=O | -13%
COC(=O)CN(c1cccc(C(C)=O)c1)S(C)(=O)=O | 2%
CCCNC(=S)NC1CC2CCC(C1)N2Cc1ccccc1 (configuration not stated) | 1%
Cc1sc2nc(CN3CCCC3)nc(N3CCC(C(N)=O)CC3)c2c1C | -11%
O=C(Nc1cccc(-c2nc3cc(Cl)ccc3o2)c1)C1CCCO1 (configuration not stated) | ?
O=C1/C(=C/c2cccnc2)Sc2ccccc21 | -13%
O=C(Nc1ccccc1C(=O)NCc1ccccc1)c1ccco1 | 0%
CC(C)(C)Cc1nc(-c2ccccn2)no1 | -9%
CC1=CC2CC1C1C(=O)N(c3ccc(S(=O)(=O)Nc4nc(C)cc(C)n4)cc3)C(=O)C21 (configuration not stated) | -18%
Cc1cc(C)nc(NS(=O)(=O)c2ccc(NC(=O)c3ccc(N4C(=O)CCC4=O)cc3)cc2)n1 | 0%
O=C(N1CCCCC1)C1(c2ccccc2)CCOCC1 | -4%
CC1CCCC(C)N1CCNC(=O)Nc1ccc(Cl)cc1 (configuration not stated) | 2%
O=C(CN1CCSCC1)c1c[nH]c2ccccc12 | -8%
CC(C)CCn1c(=O)c2ccccc2n2c(COC(=O)c3ccc(S(=O)(=O)N(C)C)cc3)nnc12 | -7%
CC1CCC(C(=O)NC(C(=O)NCc2cccnc2)C(C)C)CC1 (configuration not stated) | 0%
COc1ccccc1C(=O)NC(=S)Nc1ccc(NC(=O)c2cccs2)cc1 | -8%
COc1cc2nc(C3CCC3)nc(N3CCN(c4ccccn4)CC3)c2cc1OC | -11%
CC1(C)Cc2noc(N)c2C(C)(C)N1O | -15%
N#Cc1c(-c2ccc(Cl)cc2)ccn2nc(CCC(=O)O)nc12 | ?
O=c1c2ccccc2c2ccccc2c(=O)n1-c1cc2c3ccccc3ccc2c2ccccc12 | -6%
CCC(=O)n1nc(-c2ccc(OC)cc2)nc1SC | 0%
COc1ccc(-c2cc3nc4n(c(=O)c3s2)CCC4)cc1 | ?
O=C(CCS(=O)(=O)c1cccs1)NC1CCCCCC1 | -4%
Cc1ccc(NC(=O)CS(=O)CC(=O)NCCCc2ccccc2)cc1Cl (configuration not stated) | -9%
CCCC(=O)NC(=S)Nc1ccc(C(C)=O)cc1 | ?
CC(/C=C/c1ccco1)=N\NC(=O)c1cccc(Cl)c1 | -14%
O=C(CCC(=O)c1cccs1)Nc1nnc(C2CC2)s1 | -13%
ONC(=Nc1ccccc1)c1ccccc1Cl | -9%
Clc1ccc(-c2nnc(NC3=NCCCCC3)o2)cc1 | -21%
CCC(C)n1c(-c2cc(OC)c(OC)c(OC)c2)nc2nc3ccccc3nc21 (configuration not stated) | -18%
N#Cc1cc(-c2ccccc2)cnc1Sc1ccccc1 | -21%
CC(C)(C)c1ccc(Cn2nnc3c(=O)[nH]c(C4CCCN(C(=O)Cc5cccs5)C4)nc32)cc1 (configuration not stated) | -7%
Cc1ccc(S(=O)(=O)N(C)c2ccc(N)cc2)cc1 | -12%
CCCCN=CC1=C(O)C(C(=O)OC)C(C)(C)CC1=O (configuration not stated) | -2%
CC1=C(C(=O)Nc2ccc(F)cc2)C(c2cccc(C)c2)n2nc(CCCO)nc2N1 (configuration not stated) | -6%
CCOC(=O)c1sc2nc(C(C)C)c3c(c2c1N)CC(C)(C)OC3 | ?
COC(=O)c1ccc(CN2[C@@H]3C[C@@H](O)CC[C@@H]3C[C@H]2C(=O)OC)cc1 | -4%
CC(=O)NC1CSCC1OC(C)=O (configuration not stated) | 3%
O=C(Nc1cccc(F)c1)c1sc(Cl)nc1-c1ccccc1 | -9%
COc1ccc(CNC(=O)CN(c2cc(C)cc(C)c2)S(=O)(=O)c2c(C)noc2C)cc1 | -7%
COc1ccc(C(=O)N2CCC3(CCN(C(=O)Nc4cccc(F)c4)CC3)CC2)cc1 | -6%

# The list continues:
canonical_smiles | HPGD inh
COc1ccc(C(=O)NC(Nc2ccccc2)C(Cl)(Cl)Cl)cc1 (configuration not stated) | -1%
O=C(NNc1nc(-c2ccccc2)cs1)c1ccccc1 | -24%
O=C(Nc1nnc(-c2ccccc2)o1)Nc1ccccc1Cl | -24%
CCOc1cc(N2CCOCC2)c(OCC)cc1NC(=O)Cc1ccc(OC)c(OC)c1 | -5%
CCOC(=O)N1CCN(C(=O)CCc2c(C)nc3c(c(C)nn3-c3ccc(C)c(C)c3)c2C)CC1 | ?
COc1ccc(C(=O)c2nc3c(n2O)CCCC3)cc1OC | -8%
Cc1noc(C(=O)NCc2ccc(F)cc2)c1Cl | -10%
O=S(=O)(Nc1ccc(S(=O)(=O)Nc2ccccc2)cc1)c1ccccc1 | -4%

# Five records picked at random from those above, as already listed:
canonical_smiles | HPGD inh
CCOC(=O)N1CCN(C(=O)CCc2c(C)nc3c(c(C)nn3-c3ccc(C)c(C)c3)c2C)CC1 | ?
O=C(NNc1nc(-c2ccccc2)cs1)c1ccccc1 | -24%
O=C(Nc1nnc(-c2ccccc2)o1)Nc1ccccc1Cl | -24%
COc1ccc(C(=O)NC(Nc2ccccc2)C(Cl)(Cl)Cl)cc1 (configuration not stated) | -1%
Cc1noc(C(=O)NCc2ccc(F)cc2)c1Cl | -10%

# This is a subset; the hit share may differ from the screen's.
